Source: PubChem (National Center for Advancing Translational Sciences (NCATS))
GLA inh pH 4.5: qHTS Assay for Inhibitors of Human alpha-Galactosidase at pH 4.5 | purified enzyme, 4-MU-alpha-Gal fluorescence, pH 4.5 | activity change, negative = inhibition, % at 105 µM | 230,000 tested, under 10 active | AID 1467, 2008; inconclusive = small, poorly fitted or top-dose-only inhibition, or a rising curve; inactive = flat fitted curve, though single readings scatter; no compound was filed as active;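 also: 0% = full activity with enzyme and -100% = basal without enzyme; dose as in the result columns while the protocol names 77 µM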
miR-21 reporter: qHTS Assay for Modulators of miRNAs and/orActivators of miR-21 | Potency, µM (titrated, usually from 38.3 µM), inactives show at the highest dose reporter change, positive = more light | AID 2288, 2010 | HeLa miR-21 FLuc reporter, luciferase, 48 h | 340,000 tested, under 10 active; active = well fitted rising curve with a large enough effect; inconclusive = small, poorly fitted or top-dose-only effect; inactive = no such curve, though single readings can be large or run the other way;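 also: % of control where 0% means no effect; miR-21 action dims this reporter so a rising signal means less miR-21 action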
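Using DMEM plus 10% FBS, HeLa miR-21-FLuc cells are incubated with test compounds (final up to about 40uM) for 48 hours; firefly luciferase signal is then imaged following reagent-mediated lysis.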
Rango complex inh: qHTS Assay for Inhibitors of Rango (Ran-regulated importin-beta cargo) - Importin beta complex formation. hit rate 0.031% among 340,000. Importin subunit beta-1 (Homo sapiens), Q14974. Potency, µM (doses to about 92.2 µM), without a hit: at the top dose inhibition of complex formation. Rango CFP/YFP FRET sensor + importin beta, 45 min; active = rising FRET ratio curve, often small or poorly fitted; inconclusive = mostly compound fluorescence or quenching in the first reads; inactive = flat curves in all reads;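 also: potency is read from the fitted curve at half-maximal effect; 0% = DMSO wells and 100% = buffer wells lacking importin beta; nearly all actives have a fitted effect of over 15% in size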
Target sequence (Q14974 whole entry, looked up): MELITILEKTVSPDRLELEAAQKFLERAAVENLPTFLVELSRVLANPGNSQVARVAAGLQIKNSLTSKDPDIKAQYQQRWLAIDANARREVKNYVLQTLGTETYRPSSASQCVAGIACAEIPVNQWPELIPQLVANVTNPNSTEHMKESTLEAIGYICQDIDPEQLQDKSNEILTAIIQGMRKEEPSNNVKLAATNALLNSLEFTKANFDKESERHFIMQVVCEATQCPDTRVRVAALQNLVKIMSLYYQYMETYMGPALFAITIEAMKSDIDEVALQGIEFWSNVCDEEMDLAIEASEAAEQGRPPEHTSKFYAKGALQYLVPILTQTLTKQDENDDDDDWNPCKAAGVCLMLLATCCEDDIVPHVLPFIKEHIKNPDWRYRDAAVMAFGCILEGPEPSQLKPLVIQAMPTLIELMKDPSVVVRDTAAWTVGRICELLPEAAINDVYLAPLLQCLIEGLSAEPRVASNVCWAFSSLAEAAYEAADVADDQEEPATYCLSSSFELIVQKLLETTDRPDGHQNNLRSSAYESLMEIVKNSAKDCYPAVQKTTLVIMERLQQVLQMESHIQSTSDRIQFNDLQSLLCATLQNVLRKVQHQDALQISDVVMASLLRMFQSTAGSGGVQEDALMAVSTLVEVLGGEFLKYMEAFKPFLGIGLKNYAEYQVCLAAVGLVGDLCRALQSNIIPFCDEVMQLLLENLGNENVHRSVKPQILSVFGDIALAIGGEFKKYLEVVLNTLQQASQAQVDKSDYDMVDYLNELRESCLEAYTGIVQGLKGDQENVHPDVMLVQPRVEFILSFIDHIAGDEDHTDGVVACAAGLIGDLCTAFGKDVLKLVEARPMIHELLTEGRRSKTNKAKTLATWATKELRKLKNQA
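Inhibition scored from the CFP 486 nm/YFP 530 nm FRET ratio 45 min after adding 0.125 microM importin beta to 50 nM Rango biosensor preincubated 5 min with compound (room temperature, PBS with DTT, Tween-20, BSA). No-importin wells as positive control.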
Rango release inh: qHTS Assay for Inhibitors of RanGTP induced Rango (Ran-regulated importin-beta cargo) - Importin beta complex dissociation. hit rate 0.071% among 340,000. Snurportin-1 (Homo sapiens) + GTP-binding nuclear protein Ran (Homo sapiens) + Importin …. Potency, µM (doses to about 46.1 µM), for inactives: at the highest dose activity change, negative = inhibition. Biochemical FRET Rango-importin beta, RanGTP-induced dissociation. AID 540253, 2011; active means falling FRET ratio curve, often poorly fitted, with flat reads before Ran was added; inconclusive means other falling curves, or compound fluorescence or quenching; inactive means flat or rising ratio curve;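 also: potency is read from the fitted curve at half-maximal effect; % of control where 0% means no effect; nearly all actives have a fitted effect of over 45% in size; -100% = wells without RanGTP and RCC1; the record marks most hits as doubtful in a second field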
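FRET read at 45 min, room temperature: inhibitors block the CFP/YFP signal rise when RanGTP (0.6 uM Ran, 2 mM GTP, 0.2 uM RCC1) frees Rango (0.1 uM) from importin beta (0.25 uM). Pre-read after 5 min compound exposure flags interference.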
Numbers without * were called inactive; ? = inconclusive; . = no result given. An excerpt (hit frequency here may not be typical).

Compound	GLA inh pH 4.5	miR-21 reporter	Rango complex inh	Rango release inh
COc1cccc(N2CCN(S(=O)(=O)c3ccc4c(c3)NC(=O)C(C)C(=O)N4)CC2)c1 (stereo not given)	.	3.2%	3.3%	7.1%
CC1CCN(Cc2csc(N)n2)CC1	7.7	1.1%	5.5%	1.7%
Cc1ccc(CN2CCN(Cc3cnn(-c4ccc(F)cc4)c3)CC2CCO)o1 (stereo not given)	4.7	-10.5%	-0.9%	-9.6%
COC(=O)c1[nH]c2c(c1C)C(=O)CCC2	-7.1	2.3%	-1.6%	-4.9%
C=CCc1ccc(OCCOCCNCCCC)c(OC)c1	7.8	-0.6%	-0.1%	-0.6%
C=CCN(CC=C)S(=O)(=O)c1ccc(NC(=S)NC(=O)/C=C/c2cccc3ccccc23)cc1	1.1	-2.4%	?	1.1%
CCOc1cccc(CN2CCC(n3nccc3NC(=O)C3CCCC3)CC2)c1	.	-0.3%	-1.8%	16.6%
O=C(COC(=O)c1ccco1)c1ccc2ccccc2c1	-1.9	-14.2%	-0.5%	-8.4%
O=C(CCNS(=O)(=O)c1ccc(Cl)cc1)N1CCCC1	.	-1.4%	2.3%	-8.9%
O=C1c2oc3ccc(F)cc3c(=O)c2C(c2cccc(O)c2)N1CCCN1CCOCC1 (stereo not given)	8.9	-1.4%	1.1%	-10.2%

Reformatted with values under each structure: part of the list above.
Fields – GLA inh pH 4.5	miR-21 reporter	Rango complex inh	Rango release inh
O=C(COC(=O)c1ccco1)c1ccc2ccccc2c1
    -1.9	-14.2%	-0.5%	-8.4%
CCOc1cccc(CN2CCC(n3nccc3NC(=O)C3CCCC3)CC2)c1
    .	-0.3%	-1.8%	16.6%
C=CCN(CC=C)S(=O)(=O)c1ccc(NC(=S)NC(=O)/C=C/c2cccc3ccccc23)cc1
    1.1	-2.4%	?	1.1%

Reprinted at random: 2 compounds from above, in no set order.
Compound	GLA inh pH 4.5	miR-21 reporter	Rango complex inh	Rango release inh
CC1CCN(Cc2csc(N)n2)CC1	7.7	1.1%	5.5%	1.7%
C=CCN(CC=C)S(=O)(=O)c1ccc(NC(=S)NC(=O)/C=C/c2cccc3ccccc23)cc1	1.1	-2.4%	?	1.1%

More compounds.
Compound	GLA inh pH 4.5	miR-21 reporter	Rango complex inh	Rango release inh
COc1cc2oc(=O)cc(-c3cccc(-c4ccc(C(F)(F)F)cc4)c3)c2c(OC)c1OC	-10.4	.	-2.8%	-28.9%
CCc1ccc(/C=C2/C(=O)N(c3ccccc3)C(=S)N2CC(=O)OC)s1	-6.1	1.1%	?	?
COc1ccc2oc(=O)c(C(=O)OCC(=O)c3ccc([N+](=O)[O-])cc3)cc2c1	-7.2	0.1%	.	.
CCOC(=O)c1c(C)[nH]c(C(=O)COC(=O)CCNS(=O)(=O)c2ccc(NC(C)=O)cc2)c1C	.	.	?	-2.3%
Cc1ccc(N(Cc2ccccc2F)S(C)(=O)=O)cc1C	0.9	-6.9%	7.2%	9.2%
CSc1ncccc1C(=O)OCC(=O)NC1CC1	.	.	8.3%	-7.9%
N/C(=N\OC(=O)/C=C/c1ccccc1Cl)c1ccccn1	3.5	-0.6%	7.4%	0.6%
Cc1ccc(CN2CCN(Cc3ccc(-n4cccn4)cc3C)CC2CCO)cc1 (stereo not given)	-13.1	15.0%	-1.7%	3.7%
Cc1noc(NS(=O)(=O)c2ccc(N3Cc4ccccc4C3=O)cc2)c1C	6.2	-20.0%	-3.5%	2.8%
COc1ccccc1NC(=O)CSc1nncs1	.	.	-1.3%	1.2%
COc1ccc(-c2cc3nc(C)cc(C)n3n2)cc1	-5.8	-62.9%	0.1%	12.6%
COc1ccccc1N/N=C(\C#N)C(=N)N1CCOCC1	-16.5	-11.5%	-1.4%	2.5%
CC(NC(=O)c1ccc2c(c1)OCO2)C(c1cccs1)N1CCN(c2ccccc2)CC1 (stereo not given)	1.4	18.7%	-0.3%	5.8%
COc1cccc(OCCOc2c(OC)cccc2OC)c1	11.1	-29.3%	3.4%	-3.4%
O=S(=O)(c1ccc(Cl)nc1)N1CCOCC1	.	.	-4.2%	-3.6%
CC(C)(C)c1ccc(C(=O)Nc2sc3c(c2C(=O)O)CCC3)cc1	-25.4	?	-0.4%	6.5%
COc1ccc(NC(=O)CN2CCN(S(=O)(=O)c3ccc(Br)cc3)CC2)c(OC)c1	.	-2.2%	-1.6%	0.0%
CNS(=O)(=O)c1ccc(NC(=O)c2ccoc2C)cc1	3.6	-17.2%	-0.8%	-12.3%
CCCN(CC(=O)Nc1ccccc1OC)C(=O)c1ccc(S(=O)(=O)Nc2ccccc2)cc1	.	.	-1.6%	20.6%
Cc1ccc(C)c(NC(=S)NNC(=O)c2cc3c(s2)CCC(C)C3)c1 (stereo not given)	-4.5	-5.1%	4.4%	7.8%
CC1(C)C(=O)Nc2ccccc2N1C(=O)COC(=O)c1ccc([N+](=O)[O-])o1	.	.	0.9%	5.7%
O=C(O)CNC(=O)CC1S/C(=N/N=C2/NC(=O)CS2)NC1=O (stereo not given)	9.0	-0.7%	?	-20.0%
COCCN1C(=O)N(c2cccc(C)c2)C(=O)C1CC(=O)Nc1ccc(OC)cc1 (stereo not given)	.	-3.5%	1.2%	-2.7%
O=C(N/N=C/c1cc(Cl)ccc1O)C(=O)Nc1ccccc1OC(F)(F)C(F)F	-0.2	?	?	-17.5%
CCN(CC(=O)Nc1ccc(NC(C)=O)cc1)C(=O)/C=C/c1ccc2c(c1)OCO2	.	.	3.2%	-5.5%
CN(C)/C=C(\C#N)C(=O)c1cccnc1Oc1ccc(F)cc1F	-3.4	-0.2%	1.7%	-4.3%
Cc1ccc(C)c(-n2c(CNC(=O)c3ccco3)nnc2SCC(=O)Nc2nccs2)c1	5.4	1.9%	-0.3%	1.2%
COc1ccc(-c2cc(C(=O)Nc3ccccc3F)on2)cc1	-7.5	-3.8%	?	-3.0%
Cc1cc(=O)[nH]c(N/N=C/c2ccc(OC(=O)c3ccco3)cc2)n1	1.4	-8.2%	3.3%	19.1%
COc1ccccc1CNC(=O)C1=CCN(S(=O)(=O)c2ccc(C)cc2)CC1	-2.7	4.4%	1.2%	24.9%
CCOC(=O)c1sc(=NC(=O)c2ccc(Br)cc2)n(C)c1C	.	-4.5%	0.3%	-6.6%
CCCn1c(N)c(NCCN2CCOCC2)c(=O)[nH]c1=O	3.3	0.3%	?	-24.9%
O=C(NCC1(N2CCOCC2)CCCCC1)c1ccc(Cl)c(S(=O)(=O)NCc2ccco2)c1	-6.5	-6.7%	1.5%	1.3%
COc1ccccc1C(=O)C1CCCN(C(=O)c2ccco2)C1 (stereo not given)	.	-1.3%	-0.3%	-7.9%
COP(=O)(CC(=O)c1ccccc1)CC(=O)c1ccccc1	0.6	-2.5%	4.1%	35.5%
CCOC(=O)C1(Cc2ccc(Cl)cc2)CCN(C2CCC2)CC1	.	-1.9%	0.0%	-20.2%
CCCCCc1cc(=O)oc2c(C(CCN3CCCC3)c3cc(OC)c(OC)c(OC)c3)c(OC)cc(OC)c12 (stereo not given)	-13.9	?	2.2%	7.9%
O=C(CN1CCc2ccccc21)NN1CC(=O)N(c2ccc(Cl)cc2)CC1=O	2.8	-8.6%	-0.7%	8.3%
CCOc1ccc(/C(O)=C2/C(=O)C(=O)N(c3nc(C)c(C)s3)C2c2ccco2)cc1 (stereo not given)	2.5	-25.1%	?	?
CCOC(=O)C1=C(C)N(C)C(=S)NC1c1ccccc1 (stereo not given)	7.1	0.7%	-3.5%	19.6%

Exported with two lines to a compound: 5 of the compounds above
Order of results: GLA inh pH 4.5	miR-21 reporter	Rango complex inh	Rango release inh
COP(=O)(CC(=O)c1ccccc1)CC(=O)c1ccccc1
→ 0.6	-2.5%	4.1%	35.5%
CCOC(=O)C1(Cc2ccc(Cl)cc2)CCN(C2CCC2)CC1
→ .	-1.9%	0.0%	-20.2%
CCCCCc1cc(=O)oc2c(C(CCN3CCCC3)c3cc(OC)c(OC)c(OC)c3)c(OC)cc(OC)c12 (stereo not given)
→ -13.9	?	2.2%	7.9%
O=C(CN1CCc2ccccc21)NN1CC(=O)N(c2ccc(Cl)cc2)CC1=O
→ 2.8	-8.6%	-0.7%	8.3%
CCOc1ccc(/C(O)=C2/C(=O)C(=O)N(c3nc(C)c(C)s3)C2c2ccco2)cc1 (stereo not given)
→ 2.5	-25.1%	?	?

Additional structures follow.
Compound	GLA inh pH 4.5	miR-21 reporter	Rango complex inh	Rango release inh
O=C(COC(=O)C1CC2C=CC1C2)NCCc1ccccc1 (stereo not given)	5.1	3.6%	-2.7%	15.0%
c1cncc(-c2nc(-c3ccc4c(c3)OCO4)cs2)c1	3.7	-62.2%	-1.6%	-0.7%
CN(C)S(=O)(=O)N1CCC(n2nccc2NC(=O)CCc2ccccc2)CC1	.	-5.8%	3.2%	-4.5%
CCOC(=O)c1cc(-c2ccc(C)cc2)n(CCC(=O)NCCCOC)c1C	-1.7	-4.0%	1.4%	4.1%
COC(=O)c1c(NC(=O)CSc2nc3nc(C)cc(C)n3n2)sc(C)c1C	2.3	-11.6%	-1.2%	-1.0%
COc1cc(NC(=O)c2ccc(F)cc2)ccc1NC(=O)c1cc2ccccc2o1	.	-2.3%	-0.6%	-2.1%
COc1ccccc1C(=O)NCCC(=O)NC1=NCCS1	.	.	-0.2%	-24.8%
Cc1ccc(CNc2ccc(N3C(=O)CCCC3=O)cc2[N+](=O)[O-])cc1	-2.6	7.9%	-1.6%	3.0%
CCOC(=O)C1=C(C)N(c2ccccc2)C(=O)C1	-4.9	-6.6%	-0.2%	-21.3%
O=C(OCCOCCOC(=O)Oc1ccccc1)Oc1ccccc1	.	.	0.7%	2.3%
Cn1cc(SCC(=O)NCCc2ccccc2)c2ccccc21	-4.6	-0.2%	2.6%	3.7%
CCOc1ccc(-n2nc3c(Cl)nnc(C)c3c2C)cc1	-4.5	-14.0%	-2.4%	0.0%
O=C(CCCOc1ccc(Br)cc1)Nc1nnc(C2CC2)s1	.	.	-0.3%	9.3%
CCOCc1c(C(=O)Nc2ccccc2N2CCN(C)CC2)oc2ccccc12	.	.	-0.8%	-24.2%
CCOC(=O)C(C)N1C(=O)S/C(=C/c2ccc3c(c2)n(C)c(=O)n3C)C1=O (stereo not given)	-5.4	2.1%	?	-15.5%
FC(F)(F)c1ccccc1NC(=S)Nc1ccccc1	.	0.8%	?	7.1%
COC(=O)/C=C1\N/C(=N\c2nc(C)cc(C)n2)N(c2ccccc2)C1=O	-12.3	-2.0%	-0.3%	-12.1%
Nc1nc(CN2CCN(c3cccc(Cl)c3)CC2)nc(N2CCCc3ccccc32)n1	-8.0	-2.5%	2.4%	-12.1%
N#Cc1cc(-c2ccccc2)nc(NN)n1	-4.1	25.1%	2.0%	0.4%
COc1ccc(C)cc1S(=O)(=O)NCC(c1cccnc1)N1CCc2ccccc2C1 (stereo not given)	.	-7.9%	-4.1%	-1.2%
CCn1c(SCC(=O)OC)nnc1C1CCCCC1	-15.1	-0.7%	?	-14.5%
CC(=O)c1ccc(NC(=O)CCCN2C(=O)C(c3ccccc3)Oc3cccnc32)cc1 (stereo not given)	.	-5.4%	0.2%	-3.9%
O=C(c1cc(-c2ccccc2)on1)N1CCN(Cc2ccc3c(c2)OCO3)CC1	3.0	-13.5%	-0.1%	-5.4%
